Screening data: PubChem, several laboratories
HSV replic up – HSV replication enhancement; hit rate 0.005% among 220,000; AID 1956; maximum fold increase; HSV replication augmentation in cells, fold increase;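 active = peak rise of 1.5-fold or more in the series; inconclusive = self-fluorescent or not available for retest; tested in PC3 cells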;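 note: first round at 10 µM; read as green reporter fluorescence; hits show the peak of a series up to 25 µM; 1 = signal of infected wells without compound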
RGS16-Gao HTS – regulators of human RGS16-Galphao interaction | O15492+P09471 | binding response (% of control), % at 10 µM | hit rate 0.38% among 220,000 | bead-based flow cytometry RGS16-Galphao binding, fluorescence; actives lie on both sides;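 active = below 25% or above 175%, edge rows of some plates excepted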;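 note: Galphao activated by GDP with aluminum fluoride before binding; 100% = wells without compound and 0% = beads without RGS; some results beyond the cut were filed as inactive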
Target sequence (O15492 whole entry, looked up): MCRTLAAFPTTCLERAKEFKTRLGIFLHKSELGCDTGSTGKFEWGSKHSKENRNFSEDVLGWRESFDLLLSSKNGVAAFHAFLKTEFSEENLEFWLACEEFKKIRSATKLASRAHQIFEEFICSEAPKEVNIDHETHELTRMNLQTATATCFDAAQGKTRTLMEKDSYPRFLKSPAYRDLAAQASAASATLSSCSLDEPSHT
Target sequence (P09471 whole entry, looked up): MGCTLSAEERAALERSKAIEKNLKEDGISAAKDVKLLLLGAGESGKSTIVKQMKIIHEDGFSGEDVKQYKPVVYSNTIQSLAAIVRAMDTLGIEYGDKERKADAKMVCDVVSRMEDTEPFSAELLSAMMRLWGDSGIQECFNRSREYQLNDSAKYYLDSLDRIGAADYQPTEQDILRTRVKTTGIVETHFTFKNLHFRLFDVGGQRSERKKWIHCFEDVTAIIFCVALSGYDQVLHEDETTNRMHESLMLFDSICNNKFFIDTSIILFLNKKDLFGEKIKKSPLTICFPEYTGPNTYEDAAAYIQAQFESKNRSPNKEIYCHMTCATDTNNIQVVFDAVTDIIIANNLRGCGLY
PKD1 inh – inhibitors of human PKD1 kinase. Q15139. PKD1 kinase fluorescence polarization assay. inhibition, %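 (about 10 µM by stock and volumes)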. hit rate 0.056% among 200,000. AID 797;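 active = inhibition of 50% or more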;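 note: controls were vehicle for no effect and a reference inhibitor for full effect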
Insulin prom inh – TRM-6 insulin promoter activity inhibition; inhibition, % at 2 µM; hit rate 0.9% among 130,000; AID 1273; TRM-6 cells (human fetal islet line), insulin promoter-eGFP reporter, imaging; reporter expression induced with tamoxifen;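 active = inhibition above the mean plus 3 SD, with well images judged a real hit on visual review, cut at about 60% in these data, passing the limit was not always enough; inconclusive = inhibition over the cutoff but images rejected on review; inactive = inhibition not above the cutoff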
GALR2 agonist – agonists of human galanin receptor 2 (GALR2). AID 803. hit rate 0.48% among 140,000. activation, %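 (tested at 5 µM)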. GALR2-expressing cells, agonist activation read-out. O43603;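 active = above mean plus 3 SD of all compounds, about 5% in these data, not always enough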;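 note: 0% = vehicle buffer wells and 100% = reference agonist at full effect; tested in CHO reporter cells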
Target sequence (O43603 whole entry, looked up): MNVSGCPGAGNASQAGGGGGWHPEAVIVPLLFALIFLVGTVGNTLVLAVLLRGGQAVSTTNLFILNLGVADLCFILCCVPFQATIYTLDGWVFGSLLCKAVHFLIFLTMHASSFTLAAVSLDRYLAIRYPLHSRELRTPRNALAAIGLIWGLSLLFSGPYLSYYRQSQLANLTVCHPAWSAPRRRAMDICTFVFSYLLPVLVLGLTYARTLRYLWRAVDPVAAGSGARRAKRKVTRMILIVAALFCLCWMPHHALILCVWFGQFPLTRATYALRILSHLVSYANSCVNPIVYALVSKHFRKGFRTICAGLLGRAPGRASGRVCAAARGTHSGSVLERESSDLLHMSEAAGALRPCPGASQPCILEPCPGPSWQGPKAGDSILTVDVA
Insulin prom inh cell count – second read-out of Insulin prom inh, no call of its own (marks repeat the call); normalized cell count, %; measured here: cell count, toxicity; reference of the scale not given here;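 cells exposed to compound for 48 h; stained nuclei by imaging scaled within each plate; lower means fewer cells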
HSV replic up primary fold – recorded beside HSV replic up, whose call it bears; fold increase; compound at 10 µM; measured here: primary screen fold increase 10 uM; tested in PC3 cells;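 GFP signal in the first replicate; 1 = infected wells without compound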
Starred values were filed as active, the others as inactive; i = inactive; ? = inconclusive; . = no result given.

Under each structure – RGS16-Gao HTS	HSV replic up	HSV replic up primary fold	Insulin prom inh cell count	Insulin prom inh	GALR2 agonist	PKD1 inh
- COC(=O)CCS(=O)(=O)c1cc(Cl)ccc1Cl
→ 100	i	1.2	.	.	-1.8	-12
- O=C(COc1ccc2c(c1)CCC2)NCc1cccc(Cl)c1
→ 102	i	1.1	.	.	-0.2	-4
- COc1ccc(CNC(=O)c2c(N)n(CCCN3CCOCC3)c3nc4ccccc4nc23)cc1
→ 100	i	0.96	68	6	32*	-1
- O=c1[nH]c2c(c(=O)n1Cc1ccccc1)CCC2
→ 120	i	0.92	99	-33	-2.6	-9
- Cn1c(CCN2CCCCC2)nc2cc(NC(=O)C3CCCCC3)ccc21
→ 101	i	0.64	87	-38	-0.7	6
- CC(=O)c1ccc(NC(=O)CN2CCC(NC(=O)C3CCCCC3)CC2)cc1
→ 95	i	0.95	119	-33	.	-9
- CCN(CC)CCc1c(C)[nH]c(C(=O)OCc2ccccc2)c1C
→ 61	i	0.82	66	-19	-1.7	4
- CCOc1ccc(C(=O)NCC(=O)OCC(=O)NC2CCCC2)cc1
→ 103	i	1	.	.	.	5
- Cc1ccc(NC(=O)CS(=O)CC(=O)N(CC(=O)NC2CCCC2)c2ccc3c(c2)OCCO3)cc1 (stereo unspecified)
→ 92	i	1.1	126	25	.	6
- COc1cc(OC)c(C(=O)OCC(=O)N2CC(=O)Nc3ccccc32)cc1OC
→ 107	i	0.93	72	21	.	3
- CC(=O)OCC(=O)Nc1ccccc1OC(F)F
→ 103	i	0.93	.	.	.	-4
- CC(NC(=O)Nc1cccnc1)(C(F)(F)F)C(F)(F)F
→ 99	i	0.97	.	.	-2.9	9
- O=C(Nc1ccccc1)C1=C[C@H](c2coc3ccccc3c2=O)C[C@H](OCc2ccc(CO)cc2)O1
→ 107	i	0.92	.	.	.	9
- CCCc1nn(C)c2c(=O)[nH]c(-c3cc(S(=O)(=O)N(CCO)CCO)ccc3OCC)nc12
→ 105	i	0.97	.	.	.	.
- COc1ccc(CCN(C(=O)C(F)(F)F)C(C(=O)NC2CCCCC2)c2ccc(C)s2)cc1 (stereo unspecified)
→ 101	i	0.95	192	23	-1.3	4
- S=c1nc[nH]c2c1[nH]c1ccccc12
→ 100	i	0.84	106	-58	-3.8	11
- Cn1cnnc1SCC(=O)Nc1c(F)cc(F)cc1Br
→ .	i	0.91	58	-7	-0.1	-7
- CC(=O)Nc1ccc(OC/C=C(\C)Cl)cc1
→ 98	i	1.1	110	-57	-0.9	3
- O=C(Nc1ccn(Cc2c(F)c(F)cc(F)c2F)n1)c1ccc(COc2cc(Cl)ccc2Cl)o1
→ 94	i	0.82	142	35	-1.5	-1
- Cn1c(NC(=O)/C=C/c2c(F)cccc2Cl)cc(=O)n(C)c1=O
→ 98	i	0.92	124	29	.	1

Printed as active in GALR2 agonist (from the list above):
mol | RGS16-Gao HTS | HSV replic up | HSV replic up primary fold | GALR2 agonist | PKD1 inh
COc1ccc(CNC(=O)c2c(N)n(CCCN3CCOCC3)c3nc4ccccc4nc23)cc1 | 100 | i | 0.96 | 32* | -1

Next part:
Under each structure – RGS16-Gao HTS	HSV replic up	HSV replic up primary fold	Insulin prom inh cell count	Insulin prom inh	GALR2 agonist	PKD1 inh
- Cc1cccc(C2=NN(c3ccc(Br)cc3)[C@@H](C(=O)N3CCOC3=O)[C@@H]2c2ccc(F)cc2)c1
→ 105	i	0.85	101	36	9.8*	-10
- O=C(Cn1nc(-c2ccccc2)ccc1=O)Nc1cccc(NC(=O)c2ccccn2)c1
→ 95	i	0.98	110	27	.	4
- CCCS(=O)(=O)N1CCCC(C(=O)NCCN(Cc2ccccc2)C(C)C)C1 (stereo unspecified)
→ 105	i	0.98	.	.	0.0	-1
- CCC(Sc1nc(N)cc(N)n1)C(=O)O (stereo unspecified)
→ 96	i	1.1	118	5	-0.9	-4
- CNC(=O)CNC(=O)Nc1ccc(Cl)c(Cl)c1
→ 101	i	0.97	99	-9	.	-12
- CCN=C1SC(CC(=O)NCC)C(=O)N1CC (stereo unspecified)
→ 519	i	0.83	105	-11	-1.2	4
- CNCC(C)COc1ccccc1OCc1ccccc1 (stereo unspecified)
→ 124	i	0.95	37	-148	-0.9	5
- O=C(CS(=O)CC(=O)Nc1ccc(Cl)cc1)NCC1OCCc2ccccc21 (stereo unspecified)
→ 63	i	0.92	.	.	-0.1	-1
- Nc1nc(Nc2cccc(F)c2)nc(N2CCOCC2)c1[N+](=O)[O-]
→ 100	i	0.93	.	.	.	.
- CCOC(=O)CC(=O)CSc1nc(C)cc(-c2cccnc2)c1C#N
→ 100	i	0.82	122	46	-0.9	-1
- CCc1[nH]c(C(=O)O)c(C)c1C(=O)OC
→ 92	i	0.93	.	.	.	.
- c1ccc(Cc2cc[n+](Cc3ccccc3)cc2)cc1
→ 100	i	0.93	.	.	.	0
- Nc1ncnc2c1ncn2CCN1CCCCC1
→ 199	i	1.1	149	32	-0.8	-2
- Cc1cccc(CC2S/C(=N/c3ccccn3)NC2=O)c1 (stereo unspecified)
→ 237	i	1	112	35	-1.0	8
- O=C(Cc1cccs1)Nc1ccc(-c2nnc(-c3ccccc3)o2)cc1
→ .	i	0.99	84	23	-3.0	-7
- CCOC(=O)CC(NC(=O)c1ccccc1)c1ccc(OC)cc1 (stereo unspecified)
→ 106	i	0.92	136	53	.	-2
- Cc1ccc(C)c(NNC(N)=S)c1
→ 101	i	0.84	85	-38	.	-4
- CCCC(=O)Nc1cccn(Cc2ccccc2Br)c1=O
→ .	.	.	119	0	0.0	-2
- CN(CC(=O)NC1CCCC1)S(=O)(=O)c1cnc[nH]1
→ 101	i	1	85	7	.	-2
- Cc1cc(N2CCN(c3ccc(F)cc3)CC2)nc(-c2ccccc2)n1
→ 105	i	1.1	125	17	-0.3	-4

Entries listed so far that contain bromine, in the order listed:
Under each structure – RGS16-Gao HTS	HSV replic up	HSV replic up primary fold	Insulin prom inh cell count	Insulin prom inh	GALR2 agonist	PKD1 inh
- Cn1cnnc1SCC(=O)Nc1c(F)cc(F)cc1Br
→ .	i	0.91	58	-7	-0.1	-7
- Cc1cccc(C2=NN(c3ccc(Br)cc3)[C@@H](C(=O)N3CCOC3=O)[C@@H]2c2ccc(F)cc2)c1
→ 105	i	0.85	101	36	9.8*	-10
- CCCC(=O)Nc1cccn(Cc2ccccc2Br)c1=O
→ .	.	.	119	0	0.0	-2

Single records, as listed above:
Profile of `CCN=C1SC(CC(=O)NCC)C(=O)N1CC` (stereo unspecified) = RGS16-Gao HTS = 519; HSV replic up = i; HSV replic up primary fold = 0.83; Insulin prom inh cell count = 105; Insulin prom inh = -11; GALR2 agonist = -1.2; PKD1 inh = 4
Profile of `Cc1cccc(CC2S/C(=N/c3ccccn3)NC2=O)c1` (stereo unspecified) = RGS16-Gao HTS = 237; HSV replic up = i; HSV replic up primary fold = 1; Insulin prom inh cell count = 112; Insulin prom inh = 35; GALR2 agonist = -1.0; PKD1 inh = 8

(further entries)
Under each structure – RGS16-Gao HTS	HSV replic up	HSV replic up primary fold	Insulin prom inh cell count	Insulin prom inh	GALR2 agonist	PKD1 inh
- Cc1cccc(C)c1OCC(=O)Nc1ncn[nH]1
→ 109	i	0.84	86	17	-2.2	5
- CC(=O)/C(N=Nc1ccc(C(=O)O)cc1)=C(\C)O
→ 104	i	1.3	.	.	.	.
- CCC1Oc2ccccc2N(CC(=O)NCCCN2CCOCC2)C1=O (stereo unspecified)
→ .	i	0.91	.	.	-2.2	3
- CCc1c(O)nc2ccccn2c1=O
→ 114	i	1	86	35	-1.2	3
- C=CCc1ccc(OCC(O)COc2ccc(CC=C)cc2OC)c(OC)c1
→ 96	i	0.96	80	-23	-0.5	1
- Cc1c(CCOC(=O)c2cccc([N+](=O)[O-])c2)sc[n+]1CC(=O)c1ccccc1
→ 104	i	0.88	.	.	.	32
- O=C(CN1CCCCC1)Nc1cccc(Oc2ccccc2)c1
→ 133	i	0.76	90	13	-1.0	2
- COc1cc(/C=C(\NC(C)=O)C(=O)Nc2ccccc2C)ccc1OC(C)=O
→ 52	i	0.91	.	.	-2.6	-2
- CCCCC(=O)NC(=S)Nc1ccc(Cl)c(C(=O)O)c1
→ 107	i	0.9	76	-50	.	-7
- COc1cc(/C=C/c2cc(C(F)(F)F)[nH]c(=O)n2)cc(OC)c1OC
→ 88	i	0.71	65	56	.	-10
- Clc1cccc(CSc2nnc(-c3cccnc3)n2Cc2ccco2)c1
→ 99	i	1	86	-19	0.0	1
- O=C(NC1=C(Nc2ccc(Cl)cc2)C(=O)c2ccccc2C1=O)c1ccccc1
→ 132	i	0.97	.	.	-1.5	-1
- CCOC(=O)c1ccc(NC(=O)CSc2ccc(-c3cccnc3)nn2)cc1
→ 107	i	0.94	104	-53	.	2
- CCCCc1ccc(NC(=O)N2CCNC(=O)C2CC(=O)Nc2ccsc2C(=O)OC)cc1 (stereo unspecified)
→ 99	i	0.83	.	.	.	.
- CC(=O)Nc1ccc(OCC[n+]2cccc(C(N)=O)c2)cc1
→ 92	i	1	.	.	.	1
- CN1CCN(c2ccc(C(=O)c3ccc(Br)cc3)cc2[N+](=O)[O-])CC1
→ 101	i	0.92	.	.	.	8
- COc1ccc(-n2nnnc2-c2nc3ccccc3s2)cc1
→ 105	i	0.99	128	-24	0.2	-4
- Cc1ccc(OCCOCCn2cnc3ccccc3c2=O)cc1C
→ 94	i	1	.	.	.	1
- O=C(CSc1nc2ccccc2[nH]1)Nc1ccccc1F
→ 110	.	.	119	-43	-1.5	-1
- Cc1ccc(C(=O)N/C(=C\c2ccco2)C(=O)NCCc2c[nH]c3ccccc23)cc1
→ 134	i	1.1	66	32	0.2	5

The listing continues.
Under each structure – RGS16-Gao HTS	HSV replic up	HSV replic up primary fold	Insulin prom inh cell count	Insulin prom inh	GALR2 agonist	PKD1 inh
- COc1ccc(/C=N/Nc2nc(C)c([N+](=O)[O-])c(N(C)c3ccccc3)n2)cc1OC
→ 90	i	0.75	82	0	-1.5	-1
- CCC(C)NC(=O)CN(c1cc(C)ccc1OC)S(C)(=O)=O (stereo unspecified)
→ 94	i	0.63	.	.	-0.3	-6
- N#CC(C#N)=C/C(C#N)=C(/N)N1CCN(c2ccc(Cl)cc2)CC1
→ 100	i	1.1	.	.	-1.1	0
- O=C(N/C(=C\c1ccccc1)C(=O)N1CCN(CCO)CC1)c1ccccc1
→ 98	i	0.92	.	.	-0.2	-7
- Cc1cccc2nc(-c3ccco3)c(Nc3ccccc3)n12
→ 102	i	1	126	7	.	-2
- c1ccc(-c2noc(C3CCC3)n2)nc1
→ 104	i	0.93	.	.	.	.
- COC(=O)C1C(c2ccccc2)C(C(=O)N2CCOCC2)C1c1ccccc1 (stereo unspecified)
→ 85	i	0.88	99	6	-2.3	4
- Cc1ccc(C(=O)Nc2cccc(C(F)(F)F)c2)cc1Nc1ncnc2nc[nH]c12
→ 101	i	0.9	.	.	.	.
- CCCOc1ccc(C2=NNC(c3cccs3)=Nc3ccc(OC)cc32)cc1
→ .	i	1.1	165	31	-3.5	-9
- O=C(O)c1cc(-c2cccs2)nn1-c1ccc(F)cc1
→ 102	i	0.97	140	50	.	-6
- O=C(NNS(=O)(=O)c1ccc2ccccc2c1)c1cc(-c2ccccn2)nc2ccccc12
→ 54	i	0.94	102	-21	-1.5	14
- COc1ccc(OCCOc2ccc(C)nc2[N+](=O)[O-])cc1
→ 74	i	1.1	98	8	-2.3	4
- C/C(=N/OCc1ccc(Br)cc1)c1ccccn1
→ 100	i	1.1	.	.	.	6
- CC(=O)c1c(C)[nH]c(C(=O)CN2C(=O)NC(C)(c3ccc(C)cc3)C2=O)c1C (stereo unspecified)
→ 102	i	0.91	88	0	.	-9
- Cc1ccc(NC(=S)Nc2ccc(S(=O)(=O)Nc3ncccn3)cc2)c(C)c1
→ 97	i	1.1	.	.	.	.
- Cc1ccc(CN2C(=O)C(C)(C)Oc3ccc(C(=O)N4CCCCC4)cc32)cc1
→ 98	i	1.1	102	9	-1.3	-6
- CCN(CC)c1ccc2cc(NC(=O)CCC(=O)O)c(=O)oc2c1
→ 99	?	.	104	3	0.2	-9
- O=C1C2=C(NC(=S)NC2c2ccc(Cl)cc2)NC(c2ccc(Cl)cc2)N1c1ccc(Cl)cc1 (stereo unspecified)
→ 96	i	1	135	-39	0.4	-2
- CCN(CC)S(=O)(=O)c1cc(C(=O)OC)ccc1Cl
→ 107	i	1	.	.	-1.2	4
- Cc1ccc(CN(C(=O)c2cc(=O)c3cc(C)cc(C)c3o2)C2CCS(=O)(=O)C2)cc1 (stereo unspecified)
→ 96	i	1.1	.	.	.	.
- COc1ccc(C2(CNC(=O)C(=O)Nc3ccc(C)cc3)CCOCC2)cc1
→ 100	i	0.92	127	-24	.	-8
- CC(=O)c1ccc(N2CCN(Cc3nc(Cc4ccccc4)no3)CC2)cc1
→ 108	i	1	.	.	.	0
